Menin-MLL FL inh: displaces fluorescein MLL peptide from human menin; Fluorescence polarization, fluorescein-MLL peptide displacement from menin; FP activity change, % at 61.4 µM; 290,000 tested, under 10 active; inconclusive = falling polarisation curve, or a change in total fluorescence; inactive = total fluorescence flat and polarisation flat or rising; no compound was filed as active; the % refers to the polarisation; negative = inhibition;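 note: % of control where 0% means no effect; inhibitors lower the polarisation; unlabelled MLL peptide was the positive control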
ClpP mod: qHTS Assay for Activators of ClpP. ATP-dependent Clp protease proteolytic subunit (Bacillus subtilis (strain 168)), P80244. purified B. subtilis ClpP, FRET peptide cleavage, 20 min. Potency, µM (series often up to 57.5 µM), for inactives: at the highest dose activity change, negative = active. actives 1.9% (n = 340,000). AID 651965, 2013; active = well fitted falling curve with a large enough effect; inconclusive = small, poorly fitted or top-dose-only effect; inactive = no such curve, though single readings can be large or run the other way; note: potency is the fitted concentration of half-maximal effect; the source files actives as falling curves though it sought activators and does not explain the sign; nearly all actives have a fitted effect of over 65% in size; many hits overshoot -100%
Target sequence (P80244 whole entry, looked up): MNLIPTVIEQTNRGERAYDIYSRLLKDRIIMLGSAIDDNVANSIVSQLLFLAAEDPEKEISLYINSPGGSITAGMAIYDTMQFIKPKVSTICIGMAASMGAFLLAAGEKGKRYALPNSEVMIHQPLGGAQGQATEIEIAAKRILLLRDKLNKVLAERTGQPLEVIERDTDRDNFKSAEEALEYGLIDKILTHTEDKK
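FRET quenching reversal measured ClpP activation: 10 microg/mL B. subtilis ClpP at pH 8 with the FRET-FV decapeptide, read at 430 nm after 320 nm excitation. The 20-min minus 0-min signal was scaled between DMSO/no-enzyme wells and ADEP (5.8 microM final).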
TRPV1 PAM: potentiators of human vanilloid receptor 1 (TRPV1); Q8NER1; AID 540277; potentiation, % at 8.33 µM; TRPV1-expressing cells, Fluo-8 calcium influx, capsaicin EC20 potentiation; host cell line not named in the record; control for the full effect not named in the record; actives 0.02% (n = 320,000); active means potentiation above 80%; inconclusive means 30% to 80%; inactive means below 30%; note: 0% is about no effect
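Cells expressing TRPV1 were dye-loaded with Fluo-8 and read kinetically: 10 s baseline, 3 min after compound (agonist portion), then 2 min after EC20 capsaicin (allosteric enhancer portion). Calcium-bound dye fluorescence at 480/520 nm.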
TRPML1 agonist: human mucolipin-1 channel agonism; Q9GZU1; TRPML1-expressing cells, Ca2+ dye fluorescence, FDSS; host cell line not named in the record; reference of the full effect not given here; activation, % (no concentration beside the values); actives 0.12% (n = 410,000); AID 624414; in the data active = activation above about 50%; inconclusive = about 30% to 50%; inactive = below about 30%; note: 0% is about no effect; the text of the record puts the active cut at 80%
Target sequence (Q9GZU1 whole entry, looked up): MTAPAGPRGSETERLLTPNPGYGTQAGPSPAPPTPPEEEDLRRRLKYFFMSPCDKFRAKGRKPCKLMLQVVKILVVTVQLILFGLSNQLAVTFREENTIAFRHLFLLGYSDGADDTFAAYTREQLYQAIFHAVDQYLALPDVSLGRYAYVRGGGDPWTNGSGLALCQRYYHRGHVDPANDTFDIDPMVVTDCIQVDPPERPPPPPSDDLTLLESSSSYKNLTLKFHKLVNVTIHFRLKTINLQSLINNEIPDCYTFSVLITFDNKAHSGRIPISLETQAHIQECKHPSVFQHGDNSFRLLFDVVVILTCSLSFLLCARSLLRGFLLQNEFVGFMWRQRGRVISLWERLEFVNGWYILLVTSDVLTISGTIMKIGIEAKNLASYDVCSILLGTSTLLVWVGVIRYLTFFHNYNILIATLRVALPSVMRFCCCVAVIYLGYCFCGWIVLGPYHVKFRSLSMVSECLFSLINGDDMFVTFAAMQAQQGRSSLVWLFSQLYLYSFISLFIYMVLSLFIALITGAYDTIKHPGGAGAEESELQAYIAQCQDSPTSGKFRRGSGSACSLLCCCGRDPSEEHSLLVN
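Cells: TRPML1-DL, 1X Tet inducer, ~16 h at 37 degrees C/5% CO2. Dye: ABD Ca8 no-wash + quencher, 45-90 min RT. Read: 10 s baseline, compound add, 110 s agonist phase; 54-4 EC80 (4uM final), 110 s antagonist phase.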
Sfp inh: blocks B. subtilis Sfp PPTase activity | Q9F4F7 | Biochemical Sfp PPTase activity, qHTS | Potency, µM, inactives show max response, negative = inhibition, most hits filed as inhibitors | actives 3.5% (n = 310,000); active = well fitted inhibition curve with a large enough effect;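 note: the enzyme is Sfp with the accession as filed and its product quenches rhodamine fluorescence; potency is the fitted concentration of half-maximal effect; 0% = enzyme reaction without inhibitor and -100% = no enzyme wells; top concentration of the series not given in the record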
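Fluorescence-quenching assay with 15 nM Sfp, 5 uM rhodamine-CoA and 12.5 uM BHQ-2-labelled ybbR peptide in pH 7.6 Hepes/MgCl2 buffer. Enzyme was pre-incubated with compound for 15 min at room temperature. Rate was taken from the 30-min fluorescence change (525/598 nm).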
PINK1 modulator: modulators of PINK1 expression; PINK1 immunofluorescence, high-content cytometry, 24 h; Potency, µM (doses to about 76.6 µM), for inactives: top-dose activation (PINK1 increase), actives largely listed as activators; actives 0.2% (n = 410,000); active = well fitted activation curve with a large enough effect; inconclusive = small, poorly fitted or top-dose-only effect; inactive = flat fitted curve, though single readings scatter; cell line not stated here;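 note: potency is the fitted concentration of half-maximal effect; % of control where 0% means no effect; nearly all actives have a fitted effect of over 65% in size; a mitochondrial uncoupler was the plate control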
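PINK1 protein level read as immunofluorescence by microplate cytometer in a fixed, stained stable cell line after 24 h exposure to five compound concentrations, with CCCP as control.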
TRPML1 inh: human mucolipin-1 channel inhibition; Q9GZU1; TRPML1-inducible cells, Ca2+ dye fluorescence, FDSS; active compounds read low; inhibition of EC80 agonist-evoked calcium signal; activity change, negative = inhibition, % (no concentration beside the values); actives 0.02% (n = 390,000); AID 624415; in the data active means activity change below about -50%; inconclusive means about -30% to -50%; inactive means above about -30%;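 note: stimulus is agonist 54-4 at its EC80 concentration; % is set by controls: 0 for no effect and ±100 for the full control effect; compound concentration not given in the record; the text of the record puts the active cut at -80%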
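Tet-induced TRPML1-DL cells loaded with Ca8 no-wash calcium dye were read kinetically on FDSS. Compound addition was followed by EC80 agonist 54-4 (4 uM final); inhibition was read over 110 s.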
* marks the source's active call; other numbers are inactive results; & = joins results of further samples; [ ] = another dose, or the depositor's remark.

Results for O=C1C=Cc2cccc3ccc(O)c1c23 ?
TRPML1 agonist: 0.3; PINK1 modulator: -3.7%; TRPML1 inh: 34.4

How did CCOc1ccc(-c2c(C)nn3c(C)c(C(=O)NCCN(C)C)cnc23)cc1OCC do in these assays?
ClpP mod: -1.7%; TRPML1 agonist: 0.7; PINK1 modulator: 0.9%; TRPML1 inh: 2.8

Results for COCCCNC(=O)Cc1c(C)c2c(cc(C)c3c(C(C)(C)C)coc32)oc1=O ?
Menin-MLL FL inh: -1.2; ClpP mod: 3.4%; TRPV1 PAM: -5.7; TRPML1 agonist: 1.5; Sfp inh: -12.3%; PINK1 modulator: -2.0%; TRPML1 inh: 10.8

How did O=C(CSc1nnnn1-c1ccccc1)N1N=CCC1c1ccccc1 (centres undefined) do in these assays?
Menin-MLL FL inh: 0.5; ClpP mod: 1.4%; TRPV1 PAM: -2.1; TRPML1 agonist: 0.2; Sfp inh: 33.2%[activator]; PINK1 modulator: 1.3%; TRPML1 inh: -4.5

How did COC(=O)C1=C(C)N(C)C(=O)NC1c1ccc(C)cc1 (centres undefined) do in these assays?
Menin-MLL FL inh: 2.0; ClpP mod: -1.0%; TRPV1 PAM: -0.1; TRPML1 agonist: 0.1; Sfp inh: 17.8%; PINK1 modulator: 16.4%[38.3 µM]; TRPML1 inh: -4.8

What do the screens show for `CSc1cccc(NC(=O)CN2C(=O)CCc3cc(S(=O)(=O)N4CCCCC4)ccc32)c1`?
ClpP mod: -2.1%; TRPML1 agonist: 1.1; PINK1 modulator: 3.1%; TRPML1 inh: -3.7

How did COc1ccc(CN2C(=O)c3cccnc3C2Nc2ccc(OC)c(Cl)c2)cc1 (centres undefined) do in these assays?
Menin-MLL FL inh: 4.1; ClpP mod: -0.4%; TRPV1 PAM: -9.0; TRPML1 agonist: 0.5; Sfp inh: 2.6%; PINK1 modulator: -3.0%[38.3 µM]; TRPML1 inh: -3.6

How did CCCOc1ccc2c(=O)c(N3C(=O)c4ccccc4C3=O)c(C)oc2c1 do in these assays?
Menin-MLL FL inh: -6.0; ClpP mod: 1.4%; TRPV1 PAM: -1.2; TRPML1 agonist: 0.2; Sfp inh: 4.0%; PINK1 modulator: -1.3%[38.3 µM]; TRPML1 inh: 7.3

What do the screens show for `COc1cc(Br)c(CC(=O)O)cc1OC`?
Menin-MLL FL inh: 3.0; ClpP mod: -1.2%; TRPV1 PAM: 4.1; TRPML1 agonist: -0.5; Sfp inh: 8.3%; PINK1 modulator: -2.5%; TRPML1 inh: 9.7

How did COc1ccc(S(=O)(=O)NC2CC2)cc1C(=O)N1CCOCC1 do in these assays?
Menin-MLL FL inh: 2.0; TRPV1 PAM: -10.4; TRPML1 agonist: 1.2; Sfp inh: 10.9%; PINK1 modulator: 0.3%; TRPML1 inh: -7.4

What do the screens show for `C=Cc1ccc(Cn2c(=O)n(CCCOC)c(=O)c3sccc32)cc1`?
Menin-MLL FL inh: -5.4; ClpP mod: -0.4%; TRPV1 PAM: 15.6; TRPML1 agonist: 0.8; Sfp inh: 1.6%; PINK1 modulator: 0.7%; TRPML1 inh: -2.0

Results for O=C(CCc1nnc(C2CCCCC2)o1)N1CCC(Oc2cccnc2)CC1 ?
Menin-MLL FL inh: -4.1; TRPV1 PAM: 0.4; TRPML1 agonist: 0.0; Sfp inh: 20.2%; PINK1 modulator: -0.1%; TRPML1 inh: -8.2

Results for COc1ccccc1CN1CCCC2(CCN(S(=O)(=O)c3ccccc3)CC2)C1 ?
Menin-MLL FL inh: 1.6; Sfp inh: 12.8%; PINK1 modulator: -1.2%

What do the screens show for `COCCNC(=O)C1c2ccccc2C(=O)N(CCOC)C1c1ccc(F)cc1` (centres undefined)?
Menin-MLL FL inh: 7.5; ClpP mod: -1.6%; TRPV1 PAM: 6.6; TRPML1 agonist: 1.1; Sfp inh: 4.8%; PINK1 modulator: -2.4%; TRPML1 inh: -12.6

How did N#Cc1cccc(-c2nc(Nc3ccccc3)c3ccccc3n2)c1 do in these assays?
Menin-MLL FL inh: 3.3; Sfp inh: 20.2%; PINK1 modulator: 10.9%

How did O=C(O)c1c2c(nc3ccc(S(=O)(=O)N4CCC(C(=O)NCc5ccccc5Cl)CC4)cc13)CCCC2 do in these assays?
Menin-MLL FL inh: 0.4; ClpP mod: -8.9%; TRPV1 PAM: 4.6; TRPML1 agonist: -0.2; Sfp inh: 1.7%; PINK1 modulator: 0.2%; TRPML1 inh: -4.4

What do the screens show for `O=c1[nH]c2ccccc2nc1/C=C(\O)C1CC1`?
Menin-MLL FL inh: -3.3; ClpP mod: 1.7%; TRPV1 PAM: -9.1; TRPML1 agonist: -0.4; Sfp inh: 16.1%; PINK1 modulator: 14.3%; TRPML1 inh: -9.6

Results for COc1ccc(N2CCN(CC(=O)c3ccc(O)cc3O)CC2)cc1 ?
Menin-MLL FL inh: 2.5; TRPV1 PAM: 10.4; TRPML1 agonist: 0.4; Sfp inh: 6.6%; PINK1 modulator: 1.5%; TRPML1 inh: -10.1

What do the screens show for `CCCCCCn1cc(CN2CC(N3CCN(CCN(C)C)CC3)CS2(=O)=O)nn1` (centres undefined)?
ClpP mod: -1.6%; TRPML1 agonist: -0.5; PINK1 modulator: -0.6%

Results for Cc1nc2ccc(NC(=O)C3COc4ccccc4O3)cc2s1 (centres undefined) ?
Menin-MLL FL inh: 1.9; ClpP mod: -0.8%; TRPV1 PAM: 0.6; TRPML1 agonist: 0.6; Sfp inh: 7.9%; PINK1 modulator: 0.6%; TRPML1 inh: -2.9

How did COc1ccc(S(=O)(=O)NCc2cccnc2)cc1NC(=O)c1ccc(C)cc1 do in these assays?
ClpP mod: -1.4%; TRPV1 PAM: 5.2; TRPML1 agonist: -0.7; PINK1 modulator: 7.2%; TRPML1 inh: 15.6

What do the screens show for `COc1cc(OC)cc(C(=O)N2c3ccc(F)cc3CCC2C)c1` (centres undefined)?
Menin-MLL FL inh: 2.5; ClpP mod: 0.2%; TRPV1 PAM: -16.3; TRPML1 agonist: 0.0; Sfp inh: 6.3%; PINK1 modulator: -0.5%; TRPML1 inh: -2.7

How did COc1cccc(CN(C(=O)c2oc3ccc(Br)cc3c2C)C2CCS(=O)(=O)C2)c1 (centres undefined) do in these assays?
ClpP mod: -2.0%; TRPML1 agonist: 3.6; PINK1 modulator: -1.9%; TRPML1 inh: -6.2

How did C[C@@H](CN=[N+]=[N-])CN1CC[C@H](C(C)(C)C)CCC1=O do in these assays?
Menin-MLL FL inh: -2.0; ClpP mod: -0.7%&-0.7%; TRPV1 PAM: -34.7; TRPML1 agonist: 1.1&-0.5; Sfp inh: -0.1%; PINK1 modulator: 0.4%; TRPML1 inh: 5.9

Results for O=c1cc(CSc2ccccn2)nc(N2CCN(c3ccccc3)CC2)[nH]1 ?
Menin-MLL FL inh: 4.4; ClpP mod: -3.1%; TRPV1 PAM: 0.5; TRPML1 agonist: 0.7; Sfp inh: 0.6%; PINK1 modulator: 1.1%; TRPML1 inh: -1.1

Results for CCCC(C(=O)NCCC(C)C)N(Cc1ccc(F)cc1)C(=O)c1snc(C(N)=O)c1N (centres undefined) ?
Menin-MLL FL inh: 0.7; ClpP mod: -17.2%; TRPV1 PAM: 8.2; Sfp inh: 0.3%; PINK1 modulator: 3.0%

How did CCOc1ccc(CCNC(=O)Cn2nnc(-c3ccccc3)n2)cc1OCC do in these assays?
ClpP mod: 2.1%; TRPML1 agonist: 4.4; PINK1 modulator: -1.1%; TRPML1 inh: 8.0

Results for CN1CCN(C(=O)/C(C#N)=C/c2ccc(F)cc2)CC1 ?
Menin-MLL FL inh: 2.3; TRPV1 PAM: 15.3; TRPML1 agonist: 0.4; Sfp inh: 2.1%; PINK1 modulator: -0.1%; TRPML1 inh: 2.1

What do the screens show for `COc1cc2c(cc1OC)/C(=C/C(=O)c1ccc(OC)c([N+](=O)[O-])c1)NCC2`?
Menin-MLL FL inh: 5.0; TRPV1 PAM: 12.9; TRPML1 agonist: 2.1; Sfp inh: 2.0%; PINK1 modulator: 15.2%; TRPML1 inh: 2.8

Results for Cc1ccc(C)c(N2N=C(C(=O)Nc3cccnc3)CCC2=O)c1 ?
ClpP mod: -0.3%; TRPV1 PAM: -6.1; TRPML1 agonist: 0.0; PINK1 modulator: 1.5%; TRPML1 inh: 8.9

How did O=C1c2ccccc2S(=O)(=O)N1CCCN1C(=O)c2ccccc2S1(=O)=O do in these assays?
ClpP mod: -9.5%; TRPML1 agonist: 0.0; PINK1 modulator: 0.0%; TRPML1 inh: 20.1

Results for COc1ccc(CNC(=O)Cc2nn(C)c(=O)c3ccccc23)cc1 ?
Menin-MLL FL inh: 0.5; ClpP mod: -3.2%; TRPV1 PAM: 4.9; TRPML1 agonist: -0.1; Sfp inh: 4.6%; PINK1 modulator: -0.9%; TRPML1 inh: -11.9

How did Cc1sc2nc(CSc3ccc([N+](=O)[O-])cc3)[nH]c(=O)c2c1C do in these assays?
Menin-MLL FL inh: 23.2; TRPV1 PAM: -2.7; Sfp inh: 50.1µM*

Results for Cc1ccc(Cl)cc1NC(=O)CSc1nc(C)c(C)c(C)c1C#N ?
ClpP mod: -17.0%; TRPML1 agonist: 3.6; PINK1 modulator: 9.9%; TRPML1 inh: -7.2

Results for Cc1ccccc1C(=O)Nc1nnc(S(=O)(=O)N2CCCCC2)s1 ?
Menin-MLL FL inh: 0.0; ClpP mod: -1.3%; TRPV1 PAM: 1.4; TRPML1 agonist: -0.2; Sfp inh: 6.6%; PINK1 modulator: 4.9%; TRPML1 inh: 11.8

What do the screens show for `COc1ccc(C(C(=O)NCC2CCCO2)N(Cc2ccccc2)C(=O)CNC(=O)c2ccco2)cc1OC` (centres undefined)?
Menin-MLL FL inh: -1.7; TRPV1 PAM: 8.9; TRPML1 agonist: -0.2; Sfp inh: -2.2%; PINK1 modulator: 0.0%; TRPML1 inh: 11.5

Compounds above that contain a thiophene ring, fused or not (2):
What do the screens show for `C=Cc1ccc(Cn2c(=O)n(CCCOC)c(=O)c3sccc32)cc1`?
Menin-MLL FL inh: -5.4; ClpP mod: -0.4%; TRPV1 PAM: 15.6; TRPML1 agonist: 0.8; Sfp inh: 1.6%; PINK1 modulator: 0.7%; TRPML1 inh: -2.0

How did Cc1sc2nc(CSc3ccc([N+](=O)[O-])cc3)[nH]c(=O)c2c1C do in these assays?
Menin-MLL FL inh: 23.2; TRPV1 PAM: -2.7; Sfp inh: 50.1µM*

Source: PubChem (National Center for Advancing Translational Sciences (NCATS))
